Sa helicase inh: inhibitors of S. aureus replicative helicase, primary screen, biochemical, fluorescence unwinding readout. purified S. aureus helicase, fluorescence unwinding assay; about half of the hits fall short of the stated cut. inhibition, %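 (tested at about 80 µM)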. 120,000 compounds, 0.05% hits. AID 485395, 2010;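 active = both duplicates at 50% or more, or one of them with a favoured structure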;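 also: 0% = mean of negative control wells and 100% = mean of positive control wells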
MgrA DNA FP: S. aureus MgrA activity modulators, primary screen, biochemical, S. aureus Newman, fluorescence polarization | MgrA-DNA binding | inhibition, %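 (about 10 µg/mL by stock and volumes)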 | 84,000 compounds, 0.13% hits | AID 602314, 2012;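 active = above 50% in either of two replicates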;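 also: 0% = protein plus DNA without compound and 100% = DNA alone without protein; higher means less MgrA bound to DNA so lower polarization; one replicate is shown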
* = called active by the depositor; · = not tested or not shown; & = joins results of further samples. These rows are one share of the data. The share of hits here may be higher or lower than overall.

Sa helicase inh	MgrA DNA FP	mol
8	1.4	CCOc1ccc(NC(=O)N2CCC(CN3CCOCC3)CC2)cc1
-19	·	c1ccc(-c2c(-c3ccccc3)n(Cc3ccco3)c3ncnc(NCCCn4ccnc4)c23)cc1
7	-1.1	O=C(Oc1cccc(NC(=O)c2cccs2)c1)c1cccc(S(=O)(=O)N2CCOCC2)c1
3	0.7	C=CCn1c(=O)c2c(nc3n2CCN3c2ccc(F)cc2)n(C)c1=O
-12	·	COCC(=O)n1nc(-c2ccco2)nc1NCc1ccccc1
11	3.3	CC1(C)CC(=O)/C(=C(\O)Cc2ccccc2)C(=NCc2ccccc2)C1
-14	0.4	CCCNC(=O)Cn1ncn2c(cc3sc(CC)cc32)c1=O
-12	·	CCn1nc(C(=O)n2cc(C(=O)c3ccccc3O)cn2)c2ccccc2c1=O
11	·	O=C(COc1ccc(-c2nnco2)cc1)N(CCc1ccccc1)Cc1ccccc1
20	2.2	CN(C)c1ccc(C2NCCS2)cc1 (centres undefined)
·	-0.1	CC(=O)c1sc(-c2ccc(Cl)cc2)nc1C
2	·	Clc1ccc(-c2cnc3n2CCCCC3)cc1

Among those listed so far, these contain a thiophene ring, fused or not.
Sa helicase inh	MgrA DNA FP	mol
7	-1.1	O=C(Oc1cccc(NC(=O)c2cccs2)c1)c1cccc(S(=O)(=O)N2CCOCC2)c1
-14	0.4	CCCNC(=O)Cn1ncn2c(cc3sc(CC)cc32)c1=O

Back to the main list with the 5 entries that preceded the break.
Sa helicase inh	MgrA DNA FP	mol
-12	·	CCn1nc(C(=O)n2cc(C(=O)c3ccccc3O)cn2)c2ccccc2c1=O
11	·	O=C(COc1ccc(-c2nnco2)cc1)N(CCc1ccccc1)Cc1ccccc1
20	2.2	CN(C)c1ccc(C2NCCS2)cc1 (centres undefined)
·	-0.1	CC(=O)c1sc(-c2ccc(Cl)cc2)nc1C
2	·	Clc1ccc(-c2cnc3n2CCCCC3)cc1
3	·	COC(=O)c1sc(N)c(C(=O)OC)c1COC(=O)c1ccc2c(c1)OCCO2
-2	·	O=C(CSc1nnc(-c2cccs2)n1C1CC1)NC(=O)C1COc2ccccc2O1 (centres undefined)
·	-1.2	CC1(C)C2CCC1(C)C(N)C2 (centres undefined)
8	·	COc1ccc(/C=N/N=C/c2c(O)[nH]c(=O)[nH]c2=O)cc1
·	-0.2	COc1ccc(COCC(O)CS(=O)(=O)c2ccc(Cl)cc2)cc1 (centres undefined)
-19	·	CCCCn1c(CNC(=O)COC)nc2ccccc21
-24	·	CCOC(=O)c1[nH]c2ccccc2c1NC(=O)c1cccc(OC)c1OC
1	·	N#CC1(NC(=O)CSc2nc3scc(-c4cccs4)c3c(=O)[nH]2)CCCCC1
9	·	Cc1ccc(CNS(=O)(=O)c2cn(C)cn2)cc1
-2	·	Cc1cccc(NC(=O)Cn2cccc2)c1
1	2.9	CS(=O)(=O)NCc1ccccc1
·	1.6	O=C(CCCO)NCc1ccc2c(c1)OCO2
4	-0.4	CC(C)CCNc1c2c(nc3nncn13)CCC2
11	0.9	O=C1CSc2ccccc2N1Cc1ccc(Cl)cc1
6	-3.4	CSc1ncc(F)c(N(C)C)n1
16	-2.6	Clc1ccc(-n2cccc2)cc1
11	·	CCOc1ccc(OCC)c(NC(=O)C2Cc3ccccc3CN2S(C)(=O)=O)c1 (centres undefined)
0	·	CNS(=O)(=O)c1cccc(C(=O)OC2CCCCC2=O)c1 (centres undefined)
23	·	COC(=O)CNC(=O)Cc1cccc2ccccc12
·	0.0	Cc1oc2ccccc2c1CCOC(=O)c1ccc(Cl)cc1
-6	·	CC(C)N(C(=O)NC(=O)Nc1ccc(S(=O)(=O)N2CCCC2)cc1)S(C)(=O)=O
7	·	CC(=O)N[C@H]1[C@H](OCCN2C(=O)c3ccccc3C2=O)O[C@H](CO)[C@@H](O)[C@@H]1O
-5	-0.9	CCc1ccccc1NCc1c(CO)cnc(C)c1O
5	·	CCOC(=O)c1cc(-c2ccc(OC)c(S(=O)(=O)NC3CCCc4ccccc43)c2)on1 (centres undefined)

Three structures from above, arranged by heavy-atom count, high to low:
Sa helicase inh	MgrA DNA FP	mol
11	·	CCOc1ccc(OCC)c(NC(=O)C2Cc3ccccc3CN2S(C)(=O)=O)c1 (centres undefined)
0	·	CNS(=O)(=O)c1cccc(C(=O)OC2CCCCC2=O)c1 (centres undefined)
6	-3.4	CSc1ncc(F)c(N(C)C)n1

(more compounds)
Sa helicase inh	MgrA DNA FP	mol
0	·	COc1cccc(C(=O)NCCS(=O)(=O)NC2CCCC2)c1
-3	·	CCN(CC(=O)Nc1ccccc1N1CCOCC1)CC(=O)NC1CCS(=O)(=O)C1 (centres undefined)
8	·	CCN(CC)c1ccc2nc3c(nc2c1)C(=O)c1ccccc1C3=O
-5	·	CC(=O)NC(CC(=O)Nc1ccc2c(c1)OCCO2)c1ccccc1 (centres undefined)
-11	3.4	NS(=O)(=O)c1ccc(C23CC4CC(CC(C4)C2)C3)cc1
20	·	Cc1nn(-c2ccccc2)c2sc(C(=O)NCCN3CCOCC3)cc12
·	-3.0	C/C(=N/O)C12CCCC(CCC1)C2
0	·	COc1ccc(NC(=O)C(CCS(C)(=O)=O)N2Cc3ccccc3C2=O)c(OC)c1 (centres undefined)
16	·	Cc1onc(-c2ccccc2)c1C(=O)OCCN1C(=O)c2ccccc2C1=O
·	-2.0	CCOC(=O)c1c(C)n(-c2ccccc2)c2c1cc(OC(=O)C(C)C)c1ccccc12
1	0.6	COC(=O)c1nnn(CC(=O)N(Cc2ccccc2)c2ccc(Br)cc2)c1C(=O)OC
·	0.4	O=[N+]([O-])c1cc(C(F)(F)F)ccc1NCCCn1ccnc1
13	5.6	COc1cc2nc(=S)n3c(c2cc1OC)NC(CCC(=O)NCCc1ccc(Cl)cc1)C3=O (centres undefined)
·	0.0	O=C(c1cc(-c2ccc(Br)cc2)nc2ccccc12)N1CCOCC1
-7	·	Cc1c(C)c2c(=O)n(-c3ccccc3)[nH]c2[nH]c1=O
·	-0.8	CC(=O)O[C@H]1[C@H](OC(C)=O)[C@H](OC(C)=O)CO[C@@H]1c1nc2ccccc2s1
-17	·	Cc1cccc(NC(=O)CSc2nnnn2-c2ccccc2)c1
-1	-1.1	COC(=O)CN1C(=O)COc2cc(S(=O)(=O)N3CCCc4ccccc43)ccc21
11	·	O=C(CSc1nc2ccccc2c(=O)n1CCO)Nc1ccccc1C(=O)Nc1ccccc1
-7	·	Cc1cc(=O)oc2cc(OC(C)C(=O)NC3(C#N)CCCCC3)ccc12 (centres undefined)
2	-1.8	CC1(C)CC(=O)C2=C(C1)NC1=C(C(=O)CC(C)(C)C1)C2c1ccccc1C(F)(F)F
-1	1.7	Cc1ccc2n1CCN(c1nc(-c3ccc(Cl)cc3)cs1)C2C (centres undefined)
-1	1.1	CN(C)c1ccc(C2OC(=O)C(C)(C)C(=O)C2(C)C)cc1 (centres undefined)
·	1.7	O=C(/C=C/c1ccccc1)c1ccc(O[C@@H]2O[C@H](CO)[C@@H](O)[C@H](O)[C@H]2O)cc1O
5	0.6	CCn1cc2c(n1)-c1c(oc(C(=O)Nc3ccc(Cl)cc3)c1C)CC2
-14	·	CN1C(=O)/C(=C/c2ccc(C(=O)NCC(=O)O)cc2)SC1=S
·	-1.3	CC(=O)Nc1ccc(C(C)=C(C#N)C#N)cc1
3	-2.1	CC1CCCN(C(=O)Cn2c3ccccc3c3nc4n(c(=O)c32)CCS4)C1 (centres undefined)
·	-0.8	C/C(=N\N=C(/N)SCc1ccc(Cl)cc1Cl)c1ccc(C)cc1
15	·	Cc1noc(C)c1S(=O)(=O)NC(C)(C)C
-4	·	Cc1cc(C(=O)COC(=O)C23CC4CC(CC(O)(C4)C2)C3)c(C)n1C1CC1
4	·	CCC(C(=O)NC1CCC(C)CC1)n1sc2ccccc2c1=O (centres undefined)
7	-1.4	Cc1ccc(C(C)n2cc(C(=O)NCc3ccccn3)nn2)cc1 (centres undefined)
5	·	Nc1c(S(=O)(=O)c2ccccc2)c2nc3ccccc3nc2n1CCNC(=O)c1cccs1
2	-0.4	Cc1ccc(S(=O)(=O)c2c[nH]c(=O)[nH]2)cc1
-5	·	O=C(OCC(=O)N1CCOCC1)c1ccc2ccccc2c1
10	·	CCCCC(=O)Nc1c(-c2ccc(OC)cc2)nc2ccccn12
·	0.7	CC(=O)Nc1cc(-c2ccc([N+](=O)[O-])cc2)[nH]n1
·	0.6	Cc1ccc(SCC(=O)c2ccc(Cl)cc2)cc1
-4	-1.1	O=C(O)c1ccc(Cn2c(SCc3ccccc3F)nc3ccncc32)cc1
-9	1.2	COc1ccc(OC)c(S(=O)(=O)NCc2cn3ccccc3n2)c1
-21	·	COC(=O)c1c(C)oc(C)c1S(=O)(=O)N1CCC(O)(c2ccc(Cl)cc2)CC1
-15	1.0	Cc1cc(C)cc(NC(=O)CN2CCC(NC(=O)Cc3ccccc3)CC2)c1
26	·	CN(C(=O)CSc1nc2ncccc2[nH]1)C1CCCCC1
·	-0.8	Cc1cc(/N=C/N(C)C)on1
2	·	O/N=C/C1=CC(CC(O)CN2CCOCC2)c2ccccc21 (centres undefined)
3	-0.1	O=C(Cn1c(CC(=O)N2CCCC2)nc2ccccc21)NCc1ccccc1
·	-0.6	O=S(=O)(NC1Cc2ccccc2C1)c1cccc2nonc12

Full records, quoted from the list. Screens in order: Sa helicase inh, MgrA DNA FP
Clc1ccc(-n2cccc2)cc1 in the list: 16, -2.6
CC(=O)Nc1cc(-c2ccc([N+](=O)[O-])cc2)[nH]n1 in the list: ·, 0.7

Following part:
Sa helicase inh	MgrA DNA FP	mol
-16	0.3	COC(=O)CCn1cc(F)c(N)nc1=O
6	·	CCc1ccc(C2CC(=O)NC(SCC(=O)OC)=C2C#N)cc1 (centres undefined)
6	-0.9	CC(C)(C)N1CCN(C(C)(C)C)C1=O
-4	·	O=C(NCC1CCCCC1)c1ccc2c(c1)OCCO2
3	3.6	O=S(=O)(c1ccc2c(c1)Cc1ccccc1-2)N1CCOCC1
-2	·	CC(=O)OC1OCCOC1NC(=S)Nc1cccc(C(F)(F)F)c1 (centres undefined)
12	·	Cc1cc(C)nc(SCC(=O)OCC(=O)c2ccc3c(c2)OCO3)n1
-20	·	COC(=O)C1=C(O)/C(=C\c2ccc(CNS(=O)(=O)c3ccc(Br)cc3)o2)N=C1C
-7	-2.3	COC(=O)c1cn(CC(=O)N2CCCCC2C)c2ccccc12 (centres undefined)
·	-0.5	CCCCCCOC(=O)C1=C(C)NC(=O)NC1c1cc2c(cc1Br)OCO2 (centres undefined)
5	0.7	N#CCNC(=O)c1sc2ccccc2c1Cl
4	-0.9	CC(C)N(C(=O)Cn1nnc2ccccc21)C(C(=O)NCc1ccco1)c1ccccc1 (centres undefined)
11	-2.1	CN(C)N=Nc1ccc(S(N)(=O)=O)cc1
2	1.3	O=C(NCCCN1CCN(c2ccc(F)cc2)CC1)c1cccn2c(=O)c3ccccc3nc12
1	-5.1	NC(=O)C1(C(N)=O)CCC1
·	-2.9	O=C1c2cccc(Oc3ccccc3)c2C(=O)c2c(Oc3ccccc3)cccc21
20	30	CN1C(=O)C(=Cc2ccc(O)cc2)C(=O)N(C)C1=S
-10	·	Cc1ccc(CCNC(=O)CC(C)(C)CC2=NS(=O)(=O)c3ccccc3N2)cc1
7	·	CCOc1ccccc1NC(=O)COC(=O)C1CCC(=O)N1 (centres undefined)
·	2.2	Cc1ccc(C)n1CCN1CCN(C(=O)c2cccc(C(F)(F)F)c2)CC1
6	4.2	CCc1c(C)nc(N2CCOCC2)[nH]c1=O
·	3.8	COc1ccc(S(=O)(=O)NCCSc2cc(C(F)(F)F)nc3ccccc23)cc1
17	-2.2	Cc1ccc(-c2ccc(C#N)c(=O)n2CC(=O)N(C)C)cc1
-15	·	CCc1ccc(/C=C2/C(=O)N(C)c3ccccc32)cc1
·	3.2&-1.7	CCOC(=O)c1c[nH]c2ccccc2c1=O
1	0.3	Cc1[nH]c2ccccc2c1/C=C(\C#N)C(=O)NCc1ccco1
14	·	CCCCNC(=O)c1c(N)n(/N=C/c2cccnc2)c2nc3ccccc3nc12
16	·	O=C(NCCCN1CCCC1)c1cc2c(s1)-c1ccccc1SC2
5	-2.8	Cc1c(C(=O)N2CCCC2)sc(NC(=O)c2cccs2)c1C#N
·	-1.1	O=C(NCc1cccnc1)c1nc2ccccc2c(=O)[nH]1
-4	1.1	CC(=O)NC(NC(C)=O)c1ccc2c(c1)OCO2
-1&3	0.3	O=C1CNC(=S)N1c1ccccc1
8	·	CCOc1ccc(-n2c(O)c(/C=N/Nc3nc(C)cc(C)n3)c3ccccc3c2=O)cc1
12	-2.9	O=C(NCCCn1ccnc1)c1cc2ccccc2oc1=O
16	·	O=C(Cn1c(-c2cccs2)cc2ccccc21)NCCC1=CCCCC1
3	·	O=C(CCn1[nH]c(=O)ccc1=O)Nc1ccc2c(c1)CCC2
-1	·	CCc1ccc(-c2nc(CSCC(=O)N3CCOCC3)c(C)o2)cc1
10	-1.2	CCC(Sc1nc2ncccc2c(=O)n1Cc1ccccc1)C(=O)Nc1ccc(F)cc1 (centres undefined)
·	0.5	COc1ccc(/C=C2/SC(=S)N(CCC(=O)Nc3c(C)n(C)n(-c4ccccc4)c3=O)C2=O)cc1
12	3.6	O=C1CC(N2CCCc3ccccc32)C(=O)N1c1ccccc1 (centres undefined)
5	·	NC(=O)c1ccsc1NC(=O)C1CC1
12	-5.0	CCN(CC)c1nc(Nc2ccc(OC)cc2)nc(Nc2ccc(OC)cc2)n1
-5	·	Cc1cc(Br)ccc1SCC(=O)OCC(=O)c1ccco1
15	5.0	O=c1oc2ccccc2cc1-c1csc(-c2ccccc2)n1
